# Bioassay records deposited in PubChem BioAssay by several laboratories.
# RGS16-Gao HTS: modulators of RGS16 binding to Galphao, primary screen, biochemical, human proteins, multiplexed bead flow cytometry; hit rate 0.38% among 220,000; bead-based flow cytometry RGS16-Galphao binding, fluorescence; actives lie on both sides; AID 1441, 2008; binding response (% of control), % at 10 µM;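 active = below 25% or above 175%, edge rows of some plates excepted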;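 note: Galphao activated by GDP with aluminum fluoride before binding; 100% = wells without compound and 0% = beads without RGS; some results beyond the cut were filed as inactive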
# Target sequence (O15492 whole entry, looked up): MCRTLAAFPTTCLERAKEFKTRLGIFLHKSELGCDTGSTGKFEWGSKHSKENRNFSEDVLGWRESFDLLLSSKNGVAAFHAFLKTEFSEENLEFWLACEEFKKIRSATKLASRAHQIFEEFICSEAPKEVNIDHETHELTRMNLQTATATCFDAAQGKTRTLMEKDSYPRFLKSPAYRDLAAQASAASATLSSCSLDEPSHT
# Target sequence (P09471 whole entry, looked up): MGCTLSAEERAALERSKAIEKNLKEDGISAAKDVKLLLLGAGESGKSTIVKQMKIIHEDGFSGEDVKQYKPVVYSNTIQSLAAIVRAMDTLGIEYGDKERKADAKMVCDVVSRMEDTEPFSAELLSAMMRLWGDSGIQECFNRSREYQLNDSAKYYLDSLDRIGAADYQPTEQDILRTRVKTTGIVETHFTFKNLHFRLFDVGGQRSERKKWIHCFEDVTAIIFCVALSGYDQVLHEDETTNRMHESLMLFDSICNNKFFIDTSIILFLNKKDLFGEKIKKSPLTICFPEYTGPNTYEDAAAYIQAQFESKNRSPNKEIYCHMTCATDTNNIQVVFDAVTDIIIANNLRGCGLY
# HSV replic up: enhancers of HSV replication in host cells, fold increase, host cell viability | HSV replication augmentation in cells | maximum fold increase | hit rate 0.005% among 220,000 | AID 1956, 2009;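 active = peak rise of 1.5-fold or more in the series; inconclusive = self-fluorescent or not available for retest; tested in PC3 cells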;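 note: first round at 10 µM; read as green reporter fluorescence; hits show the peak of a series up to 25 µM; 1 = signal of infected wells without compound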
# GALR2 agonist: GALR2 receptor agonists, primary screen, cell-based | GALR2-expressing cells, agonist activation read-out | Galanin receptor type 2 (Homo sapiens), O43603 | hit rate 0.48% among 140,000 | activation, %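 (tested at 5 µM)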;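 active = above mean plus 3 SD of all compounds, about 5% in these data, not always enough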;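 note: 0% = vehicle buffer wells and 100% = reference agonist at full effect; tested in CHO reporter cells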
# Target sequence (O43603 whole entry, looked up): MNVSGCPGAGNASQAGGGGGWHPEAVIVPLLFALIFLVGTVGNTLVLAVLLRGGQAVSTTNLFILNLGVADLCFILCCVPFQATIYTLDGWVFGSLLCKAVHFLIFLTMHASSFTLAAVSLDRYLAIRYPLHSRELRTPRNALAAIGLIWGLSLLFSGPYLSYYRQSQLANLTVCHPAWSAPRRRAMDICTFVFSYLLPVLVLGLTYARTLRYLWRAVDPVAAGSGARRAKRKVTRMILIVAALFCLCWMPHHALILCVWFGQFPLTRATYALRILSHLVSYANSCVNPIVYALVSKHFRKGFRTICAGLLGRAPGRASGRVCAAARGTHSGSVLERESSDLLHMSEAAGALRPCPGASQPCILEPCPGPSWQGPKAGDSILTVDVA
# INS promoter inh: inhibitors of insulin promoter-driven GFP, primary screen, imaging, TRM-6 cells (human fetal islet line), eGFP reporter, cell count; AID 1273, 2008; inhibition, % at 2 µM; hit rate 0.9% among 130,000; reporter expression induced with tamoxifen;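 active = inhibition above the mean plus 3 SD, with well images judged a real hit on visual review, cut at about 60% in these data, passing the limit was not always enough; inconclusive = inhibition over the cutoff but images rejected on review; inactive = inhibition not above the cutoff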
# PKD1 inh: inhibitors of human PKD1 kinase, biochemical, fluorescence polarization | Serine/threonine-protein kinase D1 (Homo sapiens), Q15139 | PKD1 kinase fluorescence polarization assay | inhibition, %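 (about 10 µM by stock and volumes)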 | hit rate 0.056% among 200,000 | AID 797, 2007;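 active = inhibition of 50% or more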;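 note: controls were vehicle for no effect and a reference inhibitor for full effect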
# INS promoter inh cell count: recorded beside INS promoter inh, whose call it bears; normalized cell count, %; measured here: cell count, toxicity; reference of the scale not given here;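 cells exposed to compound for 48 h; stained nuclei by imaging scaled within each plate; lower means fewer cells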
# HSV replic up primary fold: second read-out of HSV replic up, no call of its own (marks repeat the call); fold increase; compound at 10 µM; measured here: primary screen fold increase 10 uM; tested in PC3 cells;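 GFP signal in the first replicate; 1 = infected wells without compound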
# Numbers without * were called inactive; i = inactive; ? = inconclusive; . = not tested or not shown.
compound,RGS16-Gao HTS,HSV replic up,HSV replic up primary fold,GALR2 agonist,INS promoter inh,INS promoter inh cell count,PKD1 inh
COc1ccc(Cl)cc1S(=O)(=O)N1CCCC(C(=O)NCC(N)=O)C1 (stereo unspecified),.,i,1,-1.5,.,.,2
CCN1CCN(C(c2cccs2)C(C)NC(=S)NC2CCCCC2)CC1 (stereo unspecified),93,i,0.97,.,.,.,.
CCOP(=O)(c1ccc(N(C)C)cc1)C(O)c1c(Cl)cccc1Cl (stereo unspecified),102,i,0.87,0.8,14,160,5
COc1cc(NC(=O)c2ccco2)c(OC)cc1NC(=O)c1cc(OC)c(OC)c(OC)c1,108,i,0.73,-0.6,7,118,0
O=[N+]([O-])c1ccc2c(c1)C(O)n1nc(-c3ccccc3)nc1S2 (stereo unspecified),99,i,0.84,.,.,.,.
COC(=O)c1c(NC(=O)CSc2n[nH]c(N)n2)sc(C)c1C,106,i,0.81,1.0,.,.,-2
Cc1ccc(CC2(O)CC(C)N(C)CC2C)c(C)c1 (stereo unspecified),102,i,0.96,-1.9,14,94,5
O=c1c2ccccc2nnn1CSc1ccccc1F,103,i,0.96,-1.4,-7,180,-7
Nc1nccc(/C=C/c2c(Cl)cccc2Cl)n1,101,i,0.94,.,.,.,.
CC(=O)Nc1ccc(C(=O)NCC(=O)OCc2c(F)cccc2Cl)cc1,101,i,0.98,.,47,84,1
O=C(/C(=C/O)N=Nc1ccccc1)c1cccs1,112,.,.,.,43,199,-3
Cc1cccc(-n2ncc3c(NCCCN4CCCC4=O)ncnc32)c1,100,i,1,-0.3,18,73,5
Cc1nc([N+](=O)[O-])c(Br)n1Cc1ccc(Cl)c(Cl)c1,100,i,0.68,.,-20,50,-6
CN1C(=O)/C(=C/c2ccco2)SC1=Nc1ccc(N2CCOCC2)cc1,102,i,1.1,-0.5,31,117,-3
CC1CCCN(C(=O)CN2CCC(c3nc4ccc(Cl)cc4[nH]3)CC2)C1 (stereo unspecified),101,i,0.94,.,.,.,.
COc1cc(C(O)P(=O)(OC(C)C)c2ccc(N(C)C)cc2)cc(OC)c1OC (stereo unspecified),100,i,1.2,-0.8,17,72,-10
CCN(CC)S(=O)(=O)c1ccc(C(=O)OCC(=O)NCc2ccco2)cc1,92,i,1.1,.,17,117,-7
Cc1ccc(C)c(N=Cc2ccc(-c3ccc([N+](=O)[O-])cc3)o2)c1,102,i,0.9,.,-6,97,-4
COCCNS(=O)(=O)c1ccc(-c2ccc(Cl)cc2)cc1,99,i,1.1,.,.,.,12
CC(C)(C)c1ccc(S(=O)(=O)N2CCCC2C(=O)N2CCOCC2)cc1 (stereo unspecified),99,i,1.1,.,-53,116,0
CN(C)S(=O)(=O)c1ccc(NC(=O)Cn2c(-c3ccccc3)noc2=O)cc1,82,i,0.85,-1.5,3,79,2
Cc1onc(-c2c(F)cccc2Cl)c1C(=O)Nc1cccc2nsnc12,95,i,0.77,4.1,50,108,10
c1csc(C2=NNC(=NC3CCCCC3)SC2)c1,99,i,1,.,.,.,2
Cn1c(=O)c(C(=O)Nc2ccccn2)c(O)c2ccccc21,73,i,0.92,-2.0,.,.,-13
O=c1c2c([nH]n1-c1ccccc1)CCCC2,98,i,1.4,.,.,.,-1
O=C(NCc1nnc2c3ccccc3c(-c3ccccc3)nn12)c1ccc(Cl)cc1,102,i,0.94,0.2,-63,88,4
O=C(CSc1nc(-c2ccco2)cc(C(F)(F)F)n1)N1CCN(c2cccc(Cl)c2)CC1,99,i,1,-2.8,-26,91,-1
CCCCCCn1c(SCCC)nc2c1c(=O)[nH]c(=O)n2C,109,i,0.9,-1.5,45,73,-2
N=c1c(C(=O)NCC2CCCO2)cc2c(=O)n3ccccc3nc2n1Cc1cccnc1 (stereo unspecified),185,i,1.2,5.8*,-4,69,0
CCn1cc(CNCc2cn(-c3ccccc3C)nc2-c2ccc(OC)c(F)c2)cn1,101,i,0.96,.,.,.,5
CCOc1ccc(C(=O)Nc2ccccc2N2CCOCC2)cc1,94,i,1.1,-0.8,-60,104,-3
CC(C)(C)NC(=O)CSc1nncn1NCc1c(Cl)cccc1Cl,112,i,1,-2.9,-385,49,6
C=CCOc1c(Cl)cc(C2NC(=O)NC(C)=C2C(=O)OC)cc1Cl (stereo unspecified),104,i,0.83,-0.9,25,129,-9
O=C(NNc1cccc(Cl)n1)c1ccc(Cl)nc1,91,i,0.98,-0.2,27,83,4
CCCCN(CCCC)/C(N)=N/c1nc(C)cc(C)n1,102,i,0.98,.,.,.,4
COc1ccc(Oc2nnnn2-c2ccccc2)cc1,105,i,0.94,-1.1,.,.,-6
Cc1ccc(Cn2nc(C)c(NC(=O)c3cc(-c4ccc5c(c4)OCO5)on3)c2C)cc1,105,i,0.82,0.1,5,90,4
Nc1nc[nH]c(=O)c1N=Cc1ccccc1,100,i,1.1,.,.,.,.
COc1cccc(NC(=O)c2ccccc2-c2nc(-c3ccccc3)no2)c1,88,i,0.94,-1.1,43,98,-9
Cc1nc(Nc2ccccc2Cl)sc1C(=O)Nc1ccccc1,99,i,1,0.3,.,.,-7
O=C(c1ccccc1NS(=O)(=O)c1ccc(Cl)cc1)N1CCc2ccccc21,90,i,1,0.3,.,.,0
O=C(CS(=O)(=O)c1ccccc1)Nc1ccc(S(=O)(=O)Nc2ccccn2)cc1,104,i,0.97,.,.,.,3
CCCCC(O)(CCCC)C(=O)NN(C(=O)OC)c1ccccc1,113,i,0.9,-1.4,-33,110,-6
C=CCSC1=NC(N)=C(C#N)C2(CCCCC2)C1C(N)=O (stereo unspecified),36,i,0.99,-1.1,-2,116,-20
Cc1nc([N+](=O)[O-])c(Br)n1CC(=O)c1ccc(Cl)cc1,107,i,0.78,-3.3,69*,90*,1
C=CCn1c(CCSCc2ccc(OC)c(C)c2)n[nH]c1=S,104,i,0.93,.,.,.,-8
CCN1CCN(c2nc3c(C)cccn3c(=O)c2/C=C(\C#N)S(=O)(=O)c2ccc(C)cc2)CC1,107,i,0.81,-1.9,36,140,8
CC1CC(C)(C)NC(=O)O1 (stereo unspecified),95,i,0.99,-1.1,17,202,-2
O=S(=O)(NC1CCCC1)c1cccc(S(=O)(=O)N2CCC(n3nnc4ccccc43)CC2)c1,103,i,0.92,-1.7,-157,160,-6
CCN1CCN(C(c2cccc(OC)c2)c2sc3nc(C)nn3c2O)CC1 (stereo unspecified),98,i,1,0.7,.,.,-1
CC(C)Oc1ccc(C2CC(=O)N(Nc3ccc([N+](=O)[O-])cc3[N+](=O)[O-])C2=O)cc1 (stereo unspecified),103,i,1,.,.,.,.
Cc1cccc(CCNC(=O)C2CCC(CNS(=O)(=O)c3cccs3)CC2)c1 (stereo unspecified),105,i,1.1,.,.,.,-1
Cn1c(-c2ccccc2)cc2c3no[n+]([O-])c3ccc21,100,i,0.63,-0.3,15,91,-9
CC(C)c1ccc(NC(=O)COc2ccc(F)cc2C(=O)c2cnn(-c3ccccc3)c2)cc1,101,i,0.72,-0.7,-27,116,-12
O=C(COc1ccc(/C=N/NS(=O)(=O)c2ccccc2)cc1)Nc1ccc(F)cc1,104,i,1,-2.4,13,110,11
CCN(CC)S(=O)(=O)c1ccc2c(c1)nc(SCC(=O)N1CCOCC1)n2-c1ccccc1OC,98,i,0.8,0.7,0,111,-7
CCOc1ccc(-c2nc(N)ncc2-c2ccccc2)c(O)c1,98,i,1,1.9,-18,53,8
Cn1c(=O)c2c(nc(N/N=C/c3cccnc3)n2Cc2ccc(F)cc2)n(C)c1=O,114,i,0.96,.,.,.,.
N#Cc1ccc(CSc2nnc(-c3cccnc3)o2)cc1,108,i,0.96,.,.,.,3
CC(C)CCNC(=O)c1ccc2nc[nH]c2c1,108,i,0.97,-0.3,42,119,-1

# Three of the compounds above, with each value named:
CCOP(=O)(c1ccc(N(C)C)cc1)C(O)c1c(Cl)cccc1Cl (stereo unspecified)
  RGS16-Gao HTS: 102; HSV replic up: i; HSV replic up primary fold: 0.87; GALR2 agonist: 0.8; INS promoter inh: 14; INS promoter inh cell count: 160; PKD1 inh: 5
COc1cc(NC(=O)c2ccco2)c(OC)cc1NC(=O)c1cc(OC)c(OC)c(OC)c1
  RGS16-Gao HTS: 108; HSV replic up: i; HSV replic up primary fold: 0.73; GALR2 agonist: -0.6; INS promoter inh: 7; INS promoter inh cell count: 118; PKD1 inh: 0
O=[N+]([O-])c1ccc2c(c1)C(O)n1nc(-c3ccccc3)nc1S2 (stereo unspecified)
  RGS16-Gao HTS: 99; HSV replic up: i; HSV replic up primary fold: 0.84; GALR2 agonist: .; INS promoter inh: .; INS promoter inh cell count: .; PKD1 inh: .

# (continued)
compound,RGS16-Gao HTS,HSV replic up,HSV replic up primary fold,GALR2 agonist,INS promoter inh,INS promoter inh cell count,PKD1 inh
Cc1ccc(S(=O)(=O)N2CCCCC2)cc1NC(=O)CSc1nnnn1C,100,i,0.84,.,.,.,.
CC(C)(C)NC(=O)C(=O)NNC(=O)c1cccc([N+](=O)[O-])c1,101,i,0.95,.,-12,112,-2
CCn1c(SCC(=O)c2ccc(O)c(O)c2)nnc1-c1ccccc1,55,.,.,-3.9,-25,118,21
CCN(CC)C(=O)c1sc(NC(=O)c2ccco2)c(C#N)c1C,106,i,0.97,-1.5,-5,143,-14
COc1ccc(OC)c2sc(NC(=O)CCS(=O)(=O)c3ccccc3)nc12,.,i,0.5,-2.9,.,.,-15
CS(=O)(=O)c1ccc2nc(NC(=O)c3cccs3)sc2c1,104,i,0.96,-0.1,-211,56,-8
COc1ccc(NC(=O)c2oc3ccccc3c2NC(=O)COc2ccccc2OC)c(OC)c1,100,i,0.86,-1.8,38,85,-22
CCCC1=C(C(=O)OCC)C(c2cccs2)C(C#N)=C(N)O1 (stereo unspecified),102,i,1.1,-1.1,-29,118,-4
O=C(COC(=O)c1sc2ccccc2c1Cl)NCC1CCCCC1,105,i,0.99,0.0,.,.,-12
OC1(C#CCN2CCOCC2)CCCCC1,101,i,1.1,.,30,74,-6
Cc1ccc(-n2nc(C)c(NC(=O)CCl)c2C)cc1,104,i,0.88,0.0,.,.,-7
CCCCN1C=CC(=C2N=c3cccc([N+](=O)[O-])c3=N2)C=C1,106,i,0.94,-1.4,-18,60,0
CCOC(=O)c1sc(C)c2c1NC1(CCCCC1)NC2=O,104,i,0.97,19*,-14,66,-15
Cn1nc(C(C)(C)C)c([N+](=O)[O-])c1C(=O)Nc1ccccc1,101,i,0.87,0.1,-7,86,-1
Cc1cc(C)c2c(C)c(C(=O)Nc3c(C)n(C)n(-c4ccccc4)c3=O)oc2c1,96,i,1.1,-2.4,.,.,-10
COC(=O)C[n+]1cccc2ccccc21,100,?,.,.,.,.,-3
Cc1noc(C)c1C(=O)NCCCc1ccccc1,97,i,0.89,-1.9,28,113,2
CC(=O)Nc1c(O)nc(SCC(=O)N2CCN(c3ccc(F)cc3)CC2)[nH]c1=O,98,i,0.97,-2.0,64,151,-10
CC(C)OC(=O)CSc1nc2cccnc2n1C1CCCCC1,99,i,0.85,0.5,8,234,-3
CC(C)(C)NC(=O)NC(=O)COC(=O)CCCc1c[nH]c2ccccc12,104,i,0.94,-2.6,4,63,11
Cc1cc(-n2cnc3c(=O)[nH]cnc32)ccc1N,109,i,0.86,.,.,.,.
N#Cc1c(NC(=O)Cn2nc(C(F)(F)F)c3c2CCCC3)sc2c1CCC2,81,i,1,-0.9,42,88,-14
CCNS(=O)(=O)c1ccc(NC(=O)c2cc(C(F)(F)F)nn2C)cc1,97,i,0.94,0.8,27,87,-8
CCCn1nnnc1NCc1cccn1C,85,i,0.91,-3.0,.,.,-20
CC(C)Cc1nnc(NC(=O)CCN2C(=O)c3ccccc3C2=O)s1,103,i,0.88,-2.2,.,.,6
NC(=O)NCc1ccc(Cl)cc1,100,i,0.9,-1.8,-12,61,-9
CCOC(=O)c1nnn(-c2nonc2N)c1-c1cccs1,95,i,0.97,-1.1,-10,157,-12
CC1CC(C)CN(S(=O)(=O)c2ccc(NN)nc2)C1 (stereo unspecified),105,i,0.93,.,.,.,.

# No enrichment for hits; any-hit rate near 1.3%.
